Screening data deposited in PubChem BioAssay by several laboratories.
Bfl-1 A1 inh: inhibitors of the anti-apoptotic protein A1, read as caspase activation; MEF A1-2A-BIM cells, Caspase-Glo 3/7 luminescence, 3 h; percent of clofoctol response, vehicle zero; caspase activation, % (test concentration not listed); AID 2462; 330,000 compounds, 0.066% hits;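 active = over half of replicate activation scores above 10%, or exactly half above 10 with the replicate mean above 10; inconclusive = replicate mean below 10 yet half the replicates above 10; inactive = over half of replicates below 10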;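 also: wells of about 30 µL received 50 nL stock; many hits fall short of the cut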
RanGTP-Impb inh: disruptors of Ran-importin-beta complex formation – biochemical, FRET, CFP-Ran, YFP-importin-beta, homogeneous, primary screen | cell-free CFP-Ran/YFP-importin-beta FRET ratio | inhibition, % (concentration not given with the values) | 300,000 compounds, 1.1% hits | AID 2216;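 active = most replicates above 15%; inconclusive = exactly half above 15%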;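 also: 0% = DMSO wells and 100% = Ran loaded with GDP instead of GTP; wells of about 40 µL received 100 nL stock; the first replicate is given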
T cruzi inh: T. cruzi replication inhibition; T. cruzi beta-gal in NIH3T3, luminescence, 90 h; inhibition, % (test concentration not listed); 300,000 compounds, 1.4% hits; AID 1885;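 active = mean inhibition across valid replicates above about 55%, limit read from the data; inconclusive = mean below that limit but half or more replicates reach it; inactive = mean below it, under half of replicates reach it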;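 also: signal also drops with host cell toxicity which is not excluded here; 0% = plate median of DMSO wells and 100% = zero luminescence signal; higher percent means less beta-gal luminescence so fewer parasites; stock transfer was 50 nL into about 50 µL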
Calb FLC: affects C. albicans growth with fluconazole. growth inhibition, % (no concentration beside the values). AID 1979. C. albicans CaCi-2 (fluconazole-resistant clinical isolate) + fluconazole, Alamar Blue growth, 48 h. 300,000 compounds, 0.57% hits;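 active = most replicates above 75%; inconclusive = exactly half above 75%; inactive = most below 75%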;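 also: all wells also contain fluconazole at 8 µg/ml as a sub-toxic cotreatment; 0% = median of DMSO wells and 100% = median of geldanamycin control wells; wells of about 8 µL received 7.5 nL stock; the first replicate is given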
Vif A3G: HIV-1 Vif–A3G interaction blockers – biochemical, TR-FRET, GST-Vif 1-94, biotin-A3G peptide, dose response retest, primary screen (AID 1117319); TR-FRET GST-Vif / biotin-A3G peptide binding; higher % means a stronger effect; test concentration not given here; strong numbers were not always called active; inhibition, %; hits with a dose series show IC50 in µM; 260,000 compounds, 0.57% hits;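 active = above the screen mean plus three standard deviations and confirmed in dose response; inconclusive = results disagree or hit not tested in dose response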;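 also: Vif residues 1-94 fused to GST binding biotinylated APOBEC3G peptide 110-148; 0% = full assay without inhibitor and 100% = GST in place of GST-Vif; retest series ran down from 100 µM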
AF4-AF9 inh: inhibitors of human MLL-AF4/AF9 interaction; P42568; AlphaScreen, biotin-AF4 peptide binding to FLAG-AF9; inhibition, % at 10 µM; 350,000 compounds, 0.47% hits; AID 651704;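 active = every replicate reaching a set inhibition limit, whatever the replicate mean, cut at about 25% in these data; inconclusive = mean inhibition reaches that limit but some replicates miss it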;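 also: 0% = plate neutral control median and 100% = total signal loss; the record names both 10 and 1 µM as test concentration; the first replicate is given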
Target sequence (P42568 whole entry, looked up): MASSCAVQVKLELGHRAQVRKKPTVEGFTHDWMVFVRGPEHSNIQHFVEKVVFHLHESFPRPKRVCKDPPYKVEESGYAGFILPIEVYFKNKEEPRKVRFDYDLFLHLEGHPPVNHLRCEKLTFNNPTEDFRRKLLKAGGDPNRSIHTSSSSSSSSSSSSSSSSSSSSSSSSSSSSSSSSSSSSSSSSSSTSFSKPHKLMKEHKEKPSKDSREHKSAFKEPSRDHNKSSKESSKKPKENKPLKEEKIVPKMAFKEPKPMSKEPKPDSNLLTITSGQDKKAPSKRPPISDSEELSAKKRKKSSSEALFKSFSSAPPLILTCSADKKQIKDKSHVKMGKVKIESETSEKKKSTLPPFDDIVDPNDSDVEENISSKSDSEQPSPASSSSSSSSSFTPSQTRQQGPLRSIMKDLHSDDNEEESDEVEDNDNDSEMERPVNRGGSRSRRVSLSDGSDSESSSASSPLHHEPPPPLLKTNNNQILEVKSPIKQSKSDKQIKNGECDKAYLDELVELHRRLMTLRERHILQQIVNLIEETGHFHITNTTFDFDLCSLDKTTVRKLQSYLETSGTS
rRNA inh HTS: inhibitors of bacterial rRNA selective over humanized ribosomes. GFP signal change (wild-type ribosome), % (test concentration not listed). E. coli WT GFP vs humanized-ribosome RFP mutants, fluorescence, 24 h; stronger effect = lower value; DMSO median 0, no signal -100. AID 720706. 350,000 compounds, 1.6% hits;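 active = significant combined selectivity score with lowered wild-type GFP, culture density cut under 30%, mutant RFP and density less affected; inactive = any of these conditions unmet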; also: one replicate is shown; some compounds called inactive have numbers as strong as hits
Beta cell apopt: blocks beta cell apoptosis. 300,000 compounds, 0.8% hits. INS-1E cytokine-induced death, ATP luminescence, 48 h; percent of positive-control rescue, neutral wells zero. protection from apoptosis, % (concentration not given with the values);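 active = all replicates at 75% or more, or half of them and the mean; inconclusive = half reach 75% but not the mean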;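 also: 0% = cytokine-treated negative control wells and 100% = positive control rescue; higher means more ATP so stronger rescue from cytokine killing; wells of about 40 µL received 100 nL stock; the first replicate is given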
rRNA inh HTS OD600: second read-out of rRNA inh HTS, no call of its own (marks repeat the call); OD600 change, %; measured here: OD600 growth;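 optical density of the mix in the first replicate; 0 = DMSO median and -100 = no signal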
rRNA inh HTS RFP: also measured in rRNA inh HTS; calls as there; RFP signal change, %; measured here: RFP humanized mutant strains;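 first replicate; 0 = DMSO median and -100 = no signal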
* marks the source's active call; other numbers are inactive results; & = joins results of further samples. The list is partial. The share of hits here may be higher or lower than overall.

Screening COCc1nnc(NC(=O)c2ccc(S(=O)(=O)N3CCOCC3)cc2)o1 returned Bfl-1 A1 inh -0.3, RanGTP-Impb inh 1.7, T cruzi inh -15, Calb FLC 3, AF4-AF9 inh -2.7, rRNA inh HTS 14, Beta cell apopt -4, rRNA inh HTS OD600 11 and rRNA inh HTS RFP -0.5.
CCCc1nn(C)c(C(=O)Nc2cccc(Cl)c2)c1Cl was read as Bfl-1 A1 inh -1.2, RanGTP-Impb inh 2.2, T cruzi inh -12, Calb FLC -1 and Beta cell apopt 3.
CCC(C)N=C1Sc2nc3ccc(C)cc3cc2CN1CCOC (stereo not given) was read as Bfl-1 A1 inh -0.6, RanGTP-Impb inh 5.2, T cruzi inh 32, Calb FLC -1, Vif A3G -7%, AF4-AF9 inh -6.7, rRNA inh HTS -3, Beta cell apopt -3, rRNA inh HTS OD600 -1 and rRNA inh HTS RFP 2.2.
Screening C#CCNC(=O)C1=C[C@H](c2cn(C(C)=O)c3ccccc23)C[C@H](OCc2ccc(CO)cc2)O1 returned Bfl-1 A1 inh -0.2, RanGTP-Impb inh -0.3, T cruzi inh -11, Calb FLC -2, AF4-AF9 inh 6.6&-10, rRNA inh HTS 2, Beta cell apopt 1, rRNA inh HTS OD600 -3 and rRNA inh HTS RFP -7.4.
For CCC(C)C(NC(=O)c1ccccc1NC(=O)c1ccco1)C(=O)O (stereo not given) the results were Bfl-1 A1 inh -0.4, RanGTP-Impb inh -2.9, T cruzi inh 0, Calb FLC 0, Vif A3G -1% and Beta cell apopt 1.
Screening Cc1ccc(-c2nc3ncccn3c2NC(=O)C2CC2)cc1 returned Bfl-1 A1 inh 0.0, RanGTP-Impb inh 1.1, T cruzi inh -7, Calb FLC -4, Vif A3G 1% and Beta cell apopt -8.
Screening Oc1ccccc1-n1c(-c2ccccc2)ccc1-c1ccccc1 returned Bfl-1 A1 inh -0.2, RanGTP-Impb inh 0.4, T cruzi inh 22, Calb FLC -10, Vif A3G 22%, AF4-AF9 inh 2.6, rRNA inh HTS -15, Beta cell apopt -8, rRNA inh HTS OD600 -27 and rRNA inh HTS RFP 6.8.
O=C(CCc1ccc(O)c(O)c1)NNC(=S)Nc1ccc(Br)cc1Cl was read as Bfl-1 A1 inh -0.9, RanGTP-Impb inh -0.5, T cruzi inh -3, Calb FLC -9, Vif A3G 33%, AF4-AF9 inh -2.1, rRNA inh HTS -24*, Beta cell apopt -3, rRNA inh HTS OD600 -16* and rRNA inh HTS RFP -4.7*.
CC(OC(=O)c1oc2ccccc2c1CSC1CCCCC1)C(=O)NC(N)=O (stereo not given) was read as Bfl-1 A1 inh 0.1, RanGTP-Impb inh -0.7, T cruzi inh 1, Calb FLC 10, Vif A3G -8% and Beta cell apopt 2.
`COc1ccc(N(CC(=O)NCC2CCCO2)S(=O)(=O)c2ccccc2)cc1OC` (stereo not given) gave Bfl-1 A1 inh -0.4, RanGTP-Impb inh 1.6, T cruzi inh -11, Calb FLC 2, AF4-AF9 inh 0.5, rRNA inh HTS 11, Beta cell apopt -3, rRNA inh HTS OD600 12 and rRNA inh HTS RFP 0.2.
`CN1CCN(C(=O)c2cccc(NS(=O)(=O)c3ccc(Br)cc3)c2)CC1` gave Bfl-1 A1 inh -0.1, AF4-AF9 inh -8.7, rRNA inh HTS 1, Beta cell apopt -3, rRNA inh HTS OD600 1 and rRNA inh HTS RFP 0.3.
Cc1onc(-c2c(Cl)cccc2Cl)c1C(=O)c1ccccc1 was read as Bfl-1 A1 inh 0.0, RanGTP-Impb inh 3.4, T cruzi inh 21, Calb FLC -4, Vif A3G -7%, AF4-AF9 inh -3.6, rRNA inh HTS -32, rRNA inh HTS OD600 -58 and rRNA inh HTS RFP -6.8.
CC(C)=CCc1c(O)cc2c(=O)c3ccc(O)cc3oc2c1O was read as Bfl-1 A1 inh 1.2, RanGTP-Impb inh 3.1, T cruzi inh -1, Calb FLC 1, AF4-AF9 inh 3.8, rRNA inh HTS -56, Beta cell apopt -2, rRNA inh HTS OD600 -80 and rRNA inh HTS RFP -31.
For O=C(O)c1cc2ccccc2c(=O)s1 the results were Bfl-1 A1 inh 1.6, RanGTP-Impb inh 5.1, T cruzi inh 1, Calb FLC 4 and Vif A3G 7%.
`CCOc1ccccc1NC(=O)CNC(=O)Cc1ccccc1` gave Bfl-1 A1 inh 0.0, RanGTP-Impb inh 2.4, T cruzi inh -2, Calb FLC 12, Vif A3G -12%, AF4-AF9 inh 0.5, rRNA inh HTS 2, Beta cell apopt -5, rRNA inh HTS OD600 2 and rRNA inh HTS RFP -1.8.
Screening O=C(Cn1ncc(Cl)c(Cl)c1=O)N1CCN(Cc2ccccc2)CC1 returned RanGTP-Impb inh 2.2, T cruzi inh 67*, Calb FLC 1, Vif A3G 16%, AF4-AF9 inh -1.9, rRNA inh HTS 12, rRNA inh HTS OD600 12 and rRNA inh HTS RFP -1.3.
Screening CCOc1cc(CNn2cnnc2)ccc1OCC(=O)NC1CCCCC1 returned Bfl-1 A1 inh 0.5, RanGTP-Impb inh -1.8, T cruzi inh -8, Calb FLC -4, Vif A3G 5% and Beta cell apopt -4.
`Cc1coc2cc3oc(=O)c(CCC(=O)N4C[C@H]5C[C@@H](C4)c4cccc(=O)n4C5)c(C)c3cc12` gave Bfl-1 A1 inh -1.1, RanGTP-Impb inh 4.3, T cruzi inh 11, Calb FLC -2, AF4-AF9 inh -2.0, rRNA inh HTS 5, Beta cell apopt -1, rRNA inh HTS OD600 19 and rRNA inh HTS RFP 11.
COc1ccc(OC)c(C=NNC(=O)c2ccc(NS(=O)(=O)c3cccs3)cc2)c1 was read as Bfl-1 A1 inh -0.5, AF4-AF9 inh 1.1, rRNA inh HTS 2, Beta cell apopt 1, rRNA inh HTS OD600 4 and rRNA inh HTS RFP 6.4.
`CC(C)(C)c1ccc(C(=O)OC/C(O)=C(\C#N)c2nc3ccccc3s2)cc1` gave Bfl-1 A1 inh -0.3, RanGTP-Impb inh 4.2, T cruzi inh -4, Calb FLC -1, Vif A3G 15%, AF4-AF9 inh -0.1 and Beta cell apopt -6.
For C=CCNC(=O)c1ccc(-c2nc(-c3ccccc3)cs2)cc1 the results were Bfl-1 A1 inh 1.3, RanGTP-Impb inh -2.7, T cruzi inh 2, Calb FLC -6, Vif A3G inconclusive and Beta cell apopt -14.
Screening Cn1c(=O)c2c(nc(SCCN3CCCCC3)n2Cc2ccc(Cl)cc2)n(C)c1=O returned Bfl-1 A1 inh -0.6, RanGTP-Impb inh -2.4, T cruzi inh 42, Calb FLC 8, Vif A3G -1% and Beta cell apopt 14.
Screening Cc1cc(C)cc(NC(=S)NCc2ccc(S(N)(=O)=O)cc2)c1 returned Bfl-1 A1 inh -0.1, RanGTP-Impb inh -1.3, T cruzi inh -2, Calb FLC 1, Vif A3G 0%, AF4-AF9 inh 1.1, rRNA inh HTS 8, Beta cell apopt 1, rRNA inh HTS OD600 6 and rRNA inh HTS RFP -0.5.
CCC(C)c1ccc(OCc2ccc(C(=O)O)o2)cc1 (stereo not given) was read as Bfl-1 A1 inh -6.8, RanGTP-Impb inh 6.7, T cruzi inh -15, Calb FLC 2, AF4-AF9 inh -0.1, rRNA inh HTS -4, Beta cell apopt -8, rRNA inh HTS OD600 -1 and rRNA inh HTS RFP -2.7.
`COCc1cc(C)nc(SCC(=O)Nc2ccc(N3CCOCC3)cc2)c1C#N` gave Bfl-1 A1 inh 1.6, RanGTP-Impb inh -2.2, T cruzi inh 11, Calb FLC -4, AF4-AF9 inh 0.6, rRNA inh HTS 3, Beta cell apopt 4, rRNA inh HTS OD600 3 and rRNA inh HTS RFP -0.2.
Screening COc1ccc(-c2cc(C(=O)N/N=C(\C)c3cccnc3)c3ccccc3n2)cc1 returned Bfl-1 A1 inh -0.6, RanGTP-Impb inh -2.1, T cruzi inh 12, Calb FLC 10, AF4-AF9 inh -3.6, rRNA inh HTS 0, Beta cell apopt 2, rRNA inh HTS OD600 -9 and rRNA inh HTS RFP 3.6.
For CCCNC1=C(N(C(C)=O)c2cccc(F)c2)C(=O)c2ccccc2C1=O the results were Bfl-1 A1 inh 0.1, RanGTP-Impb inh -0.2, T cruzi inh 55*, Calb FLC 1, Vif A3G 10%, AF4-AF9 inh 7.2, rRNA inh HTS -17, Beta cell apopt 126*, rRNA inh HTS OD600 -17 and rRNA inh HTS RFP -5.7.
CC(C)Sc1nc(C(F)(F)F)cc(=O)n1-c1ccccc1 was read as Bfl-1 A1 inh -0.9, RanGTP-Impb inh -3.4, T cruzi inh -5, Calb FLC 17, Vif A3G 3% and Beta cell apopt 4.
`O=C(OCc1ccc(Br)cc1)c1ccncc1` gave Bfl-1 A1 inh -0.5, RanGTP-Impb inh -1.1, T cruzi inh -8, Calb FLC -2, AF4-AF9 inh -0.5, rRNA inh HTS 6, Beta cell apopt -7, rRNA inh HTS OD600 2 and rRNA inh HTS RFP 0.8.
CCCn1ncc(CN2CCC(C(=O)Nc3cccc(-c4cccc(F)c4)c3)CC2)c1C was read as Bfl-1 A1 inh 1.0, RanGTP-Impb inh 3.3, T cruzi inh 57*, Calb FLC -3, Vif A3G 1%, AF4-AF9 inh 5.8, rRNA inh HTS 4, rRNA inh HTS OD600 -23 and rRNA inh HTS RFP 13.
For CCOc1cc(C2c3c(-c4ccccc4)n[nH]c3C(=O)N2c2ccc(C(=O)O)cc2)ccc1O (stereo not given) the results were Bfl-1 A1 inh 0.0, RanGTP-Impb inh 10.0, T cruzi inh -11, Calb FLC 0, Vif A3G 6%, AF4-AF9 inh -1.3, rRNA inh HTS 4, Beta cell apopt -5, rRNA inh HTS OD600 10 and rRNA inh HTS RFP 5.0.
Screening Cc1cccc(OCC(=O)NCCCNC(=O)c2ccco2)c1 returned Bfl-1 A1 inh 0.5, RanGTP-Impb inh 0.0, T cruzi inh -15, Calb FLC -4, AF4-AF9 inh -1.6, rRNA inh HTS -4, rRNA inh HTS OD600 -8 and rRNA inh HTS RFP 0.3.
Screening COn1c(SC(C)C)nc2ccccc2c1=O returned Bfl-1 A1 inh -0.4, RanGTP-Impb inh 0.8, T cruzi inh -11, Calb FLC 40, Vif A3G 6% and Beta cell apopt -1.
`O=C(O)CN(Cc1ccco1)S(=O)(=O)c1ccc(F)cc1` gave Bfl-1 A1 inh 0.0, RanGTP-Impb inh -4.2, T cruzi inh -5, Calb FLC 5, Vif A3G 0% and Beta cell apopt -1.
Screening O=C(Cc1ccccc1)Nc1ccnn1C1CCN(Cc2ccc(CO)o2)CC1 returned Bfl-1 A1 inh 0.0, RanGTP-Impb inh -0.3, T cruzi inh 1, Calb FLC -6, Vif A3G 7%, AF4-AF9 inh -1.5, rRNA inh HTS 11, rRNA inh HTS OD600 7 and rRNA inh HTS RFP 0.9.
Screening CC(=O)NC(Cc1ccccc1)C(=O)OCC(=O)c1ccc(Br)cc1 (stereo not given) returned Bfl-1 A1 inh -0.5, RanGTP-Impb inh 2.5, T cruzi inh -6, Calb FLC 0, Vif A3G 21% and Beta cell apopt 0.
